# HSV augment – HSV replication enhancement; HSV replication augmentation in cells, fold increase; maximum fold increase; 220,000 compounds, 0.005% hits;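 active = peak rise of 1.5-fold or more in the series; tested in PC3 cells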;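 note: first round at 10 µM; read as green reporter fluorescence; hits show the peak of a series up to 25 µM; 1 = signal of infected wells without compound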
# Insulin prom inh – TRM-6 insulin promoter activity inhibition | TRM-6 cells (human fetal islet line), insulin promoter-eGFP reporter, imaging; reporter expression induced with tamoxifen | 130,000 compounds, 0.9% hits | inhibition, % at 2 µM;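 active = inhibition above the mean plus 3 SD, with well images judged a real hit on visual review, cut at about 60% in these data, passing the limit was not always enough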
# RGS16-Gao HTS – RGS16-Galphao interaction regulator (human); O15492+P09471; 220,000 compounds, 0.38% hits; binding response (% of control), % at 10 µM; bead-based flow cytometry RGS16-Galphao binding, fluorescence; actives lie on both sides;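 active = below 25% or above 175%, edge rows of some plates excepted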;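 note: Galphao activated by GDP with aluminum fluoride before binding; 100% = wells without compound and 0% = beads without RGS; some results beyond the cut were filed as inactive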
# Target sequence (O15492 whole entry, looked up): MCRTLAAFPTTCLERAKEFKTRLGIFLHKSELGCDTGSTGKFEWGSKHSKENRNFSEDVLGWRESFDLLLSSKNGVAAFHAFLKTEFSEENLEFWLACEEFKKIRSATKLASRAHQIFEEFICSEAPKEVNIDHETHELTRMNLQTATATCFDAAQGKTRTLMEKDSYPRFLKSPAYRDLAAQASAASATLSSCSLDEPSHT
# Target sequence (P09471 whole entry, looked up): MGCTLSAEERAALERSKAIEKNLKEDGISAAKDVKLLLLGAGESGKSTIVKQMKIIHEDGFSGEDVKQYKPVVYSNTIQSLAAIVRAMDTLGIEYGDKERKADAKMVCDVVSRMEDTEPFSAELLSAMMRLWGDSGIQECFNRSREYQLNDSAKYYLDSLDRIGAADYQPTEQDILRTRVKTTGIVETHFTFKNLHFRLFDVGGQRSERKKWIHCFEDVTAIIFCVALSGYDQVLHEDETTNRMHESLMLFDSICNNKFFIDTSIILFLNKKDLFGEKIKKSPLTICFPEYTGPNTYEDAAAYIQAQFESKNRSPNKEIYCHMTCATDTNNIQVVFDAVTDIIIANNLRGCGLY
# PKD1 kinase inh – inhibitors of human PKD1 kinase | Q15139 | PKD1 kinase fluorescence polarization assay | inhibition, %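 (about 10 µM by stock and volumes)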 | 200,000 compounds, 0.056% hits;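 active = inhibition of 50% or more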;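 note: controls were vehicle for no effect and a reference inhibitor for full effect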
# GALR2 ag – activates the human galanin receptor 2; 140,000 compounds, 0.48% hits; AID 803; O43603; GALR2-expressing cells, agonist activation read-out; activation, %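 (tested at 5 µM)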;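 active = above mean plus 3 SD of all compounds, about 5% in these data, not always enough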;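 note: 0% = vehicle buffer wells and 100% = reference agonist at full effect; tested in CHO reporter cells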
# Target sequence (O43603 whole entry, looked up): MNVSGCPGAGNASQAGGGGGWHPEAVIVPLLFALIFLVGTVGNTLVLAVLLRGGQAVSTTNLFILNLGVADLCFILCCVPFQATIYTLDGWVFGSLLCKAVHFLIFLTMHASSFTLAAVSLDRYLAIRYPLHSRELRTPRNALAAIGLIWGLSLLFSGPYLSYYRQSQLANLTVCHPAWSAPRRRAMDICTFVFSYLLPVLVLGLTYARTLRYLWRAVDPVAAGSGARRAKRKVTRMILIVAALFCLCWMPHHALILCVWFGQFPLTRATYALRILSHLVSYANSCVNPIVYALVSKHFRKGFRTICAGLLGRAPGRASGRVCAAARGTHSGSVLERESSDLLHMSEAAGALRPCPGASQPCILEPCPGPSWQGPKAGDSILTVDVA
# Insulin prom inh cell count – second read-out of Insulin prom inh, no call of its own (marks repeat the call); normalized cell count, %; measured here: cell count, toxicity; reference of the scale not given here;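 cells exposed to compound for 48 h; stained nuclei by imaging scaled within each plate; lower means fewer cells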
# HSV augment primary fold – also measured in HSV augment; calls as there; fold increase; compound at 10 µM; measured here: primary screen fold increase 10 uM; tested in PC3 cells;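 GFP signal in the first replicate; 1 = infected wells without compound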
# Numbers without * were called inactive; i = inactive; · = no result given. Compounds were not picked by outcome. About 1.3% of those tested had a hit in this group.
SMILES,HSV augment,HSV augment primary fold,Insulin prom inh,Insulin prom inh cell count,RGS16-Gao HTS,PKD1 kinase inh,GALR2 ag
Cc1nc2ccc(NC(=O)c3cccnc3)cc2s1,i,1,·,·,97,-4,·
CCn1cc([N+](=O)[O-])c(C(=O)Nc2ccc(Br)cn2)n1,i,1.2,·,·,110,6,-1.0
CCCCn1c(C)cc2cc(O)ccc21,i,1,·,·,72,13,-1.7
CC(C)NC(=O)/C(C#N)=C\c1ccc(N(C)C)o1,i,0.95,i,98,66,-4,·
O=C(Cc1ccc([N+](=O)[O-])cc1)N1N=C(c2ccncc2)CC1(O)C(F)(F)F (centres undefined),i,0.89,·,·,101,-9,·
O=C(Nc1nnc(-c2ccccn2)o1)c1cccc(Br)c1,i,1,·,·,100,1,0.5
COC(=O)c1cccc(-n2c(C)cc(C=O)c2C)c1C,i,1.1,-38,91,97,1,0.4
COc1ccc(-c2cc(C(F)F)n3ncc(C(=O)n4ccnc4C)c3n2)cc1,i,0.83,·,·,112,-14,2.6
CC1Cc2nc(SCC(=O)N3CCCC3)n(C)c(=O)c2S1 (centres undefined),i,1.1,0,174,82,-4,-1.3
CNC(=O)CSc1nnc(-c2cccnc2)n1CCc1ccccc1,i,1.1,25,121,113,-12,-1.0
CCOC(=O)c1c(-c2ccc(C)cc2)csc1NC(=O)CCSc1nnc2ccccn12,i,0.94,-20,101,103,-3,-1.1
C/C(=N/NC(=O)CN1CCN(Cc2ccccc2Cl)CC1)c1ccncc1,i,1.1,·,·,106,-3,0.6
CC1CCN(S(=O)(=O)c2cccc(C(N)=O)c2)CC1,i,1,-43,70,103,-8,-3.3
CCCCN(C)CCOc1ccccc1OCC,·,·,0,126,102,2,-1.1
C=Cn1ccnc1P(=S)(c1ccc2c(c1)c1ccccc1n2CC)c1nccn1C=C,i,0.59,-18,96,104,1,0.0
CNCCC(Oc1ccc(C(F)(F)F)cc1)c1ccccc1 (centres undefined),i,0.74,-33,94,100,-7,-0.1
CCn1c(CC(=O)Nc2ccccc2)n[nH]c1=S,i,1,64,82,109,-7,·
CCN1C(=O)C2(C(C#N)=C(N)Oc3cc(C)oc(=O)c32)c2ccccc21 (centres undefined),i,1,11,76,105,-6,0.0
CC(/C=N/NC(=O)CSc1nc2ccccc2n1C)=C\c1ccco1,i,0.92,13,175,96,-11,-0.6
CCOCCCNC(=O)CCCn1nc(C)n2c(cc3sccc32)c1=O,i,0.99,·,·,101,5,-2.0
COc1ccc(Cl)cc1NC(=O)COC(=O)C(CC(C)C)N1C(=O)C2CC=CCC2C1=O (centres undefined),i,0.92,·,·,105,4,-0.7
CC1(C)C(=O)Nc2ccccc2N1C(=O)COc1ncnc2c(Cl)cc(Cl)cc12,i,0.87,0,91,58,5,0.5
CCOC(=O)C1CCN(C(=O)C2CCN(S(=O)(=O)c3cc(Cl)ccc3Cl)CC2)CC1,i,0.92,-38,193,105,-1,0.4
COC(=O)c1c(-c2snnc2C)n[nH]c1C,i,0.96,·,·,102,·,·
C=CCN(CC=C)C(=O)C1CC(=O)N(c2ccc(Br)cc2)C1 (centres undefined),i,0.89,-11,135,48,-7,-1.7
Cc1cc(C)cc(N(C(=O)CCC(=O)Nc2ccccn2)C(C(=O)NC(C)C)c2ccc(O)cc2)c1 (centres undefined),i,1,·,·,112,-7,·
COc1ccc(C(=O)N/N=C(\C)Cn2cnc([N+](=O)[O-])n2)cc1,i,0.87,·,·,97,0,-0.8
COC(=O)N/N=C/c1cccnc1,i,0.91,-6,138,107,-4,-1.2
COc1cc2ncnc(NCc3ccco3)c2cc1OC,i,0.94,·,·,105,-9,·
Nc1nc(CSc2nc3ccccc3s2)nc(Nc2ccccc2)n1,i,0.82,0,160,101,7,0.6
Cc1ccc(S(=O)(=O)NN2C(=O)c3ccccc3NC2C)cc1 (centres undefined),i,0.88,15,129,112,0,-1.9
O=c1c2c(nc3nc(NCc4ccccc4Cl)[nH]n13)CCC2,i,0.9,-27,113,110,-6,·
O=C(Nc1ccccn1)c1c(O)c2cccc3c2n(c1=O)CCC3,i,1.1,·,·,98,1,-3.9
Cc1ccc(Cn2ccsc2=NC(=O)CCl)cc1,i,0.54,i,2,107,-3,·
Cc1ncoc1C(=O)Nc1cccc(Cl)c1,i,0.95,-22,165,94,-8,-0.7
CCN1C(=O)c2cccc3c(S(=O)(=O)Nc4ccccc4)ccc1c23,i,0.87,-56,181,103,6,-0.4
CCOC(=O)N1CCC(N2CCN(C3CCCC3)C(CCO)C2)CC1 (centres undefined),i,1.1,·,·,102,-4,·
Cc1c(C(=O)C(=O)NCCc2ccc(S(N)(=O)=O)cc2)c2ccccc2n1C,i,0.91,6,101,109,-4,-1.2
O=[N+]([O-])c1cc([N+](=O)[O-])c(N2CCCCCC2)cc1NCCO,i,0.85,13,57,100,-11,-0.2
Cc1ccc(Cn2c(O)c(N=NC(=S)Nc3ccccc3F)c3ccccc32)cc1,i,0.98,·,·,96,0,·
O=C(CN1CCN(c2ccccc2)CC1)Nc1ccccc1C(F)(F)F,i,0.92,88*,42*,102,-1,-0.6
Cc1cc(C)nc(N(C#N)CN2C(=O)c3ccccc3S2(=O)=O)n1,i,0.89,·,·,101,-1,1.0
Cc1csc(Nc2ccc(Cl)cc2)n1,i,0.85,·,·,98,-1,·
CNc1nc(Oc2ccc(=O)n(C)n2)nc(N2CCOCC2)n1,i,0.93,-7,108,98,0,-1.6
CCOC(=O)c1[nH]c2ccc(F)cc2c1NC(=O)CN1CCc2cc(OC)c(OC)cc2C1,·,·,50,104,104,4,0.9
COc1ccc(OC2OC3COC(c4ccco4)OC3C(O)C2NC(C)=O)cc1 (centres undefined),i,1,-29,90,89,6,0.0
Cc1cc(C)c(NC(=O)CS(=O)CC(=O)N2CCN(c3ccccc3)CC2)c(C)c1 (centres undefined),i,1.3,·,·,114,-1,-1.6
Cc1cc(=O)n2c3ccccc3n(CC(O)CN3CCCC3)c2c1C#N (centres undefined),i,0.77,·,·,94,-15,-1.5

# Quoted from the results shown (six entries):
SMILES,HSV augment,HSV augment primary fold,Insulin prom inh,Insulin prom inh cell count,RGS16-Gao HTS,PKD1 kinase inh,GALR2 ag
Cc1ccc(Cn2c(O)c(N=NC(=S)Nc3ccccc3F)c3ccccc32)cc1,i,0.98,·,·,96,0,·
O=C(CN1CCN(c2ccccc2)CC1)Nc1ccccc1C(F)(F)F,i,0.92,88*,42*,102,-1,-0.6
Cc1cc(C)nc(N(C#N)CN2C(=O)c3ccccc3S2(=O)=O)n1,i,0.89,·,·,101,-1,1.0
Cc1csc(Nc2ccc(Cl)cc2)n1,i,0.85,·,·,98,-1,·
CNc1nc(Oc2ccc(=O)n(C)n2)nc(N2CCOCC2)n1,i,0.93,-7,108,98,0,-1.6
CCOC(=O)c1[nH]c2ccc(F)cc2c1NC(=O)CN1CCc2cc(OC)c(OC)cc2C1,·,·,50,104,104,4,0.9

# More entries
SMILES,HSV augment,HSV augment primary fold,Insulin prom inh,Insulin prom inh cell count,RGS16-Gao HTS,PKD1 kinase inh,GALR2 ag
COc1ccc(-c2ccc(CCC(=O)O)n2C(C)C)cc1,i,1.1,-36,145,99,-4,0.1
COc1ccccc1OCCC(=O)OCC(=O)Nc1cccc(Br)c1,i,0.99,·,·,99,-5,-1.4
Cc1cc(C(=O)Cn2nnc(-c3ccc(Cl)cc3)n2)c(C)n1-c1ccccc1,i,1,12,127,79,-1,-1.2
Cc1c(NC(=O)C(C)OC(=O)CCC2CCCC2)c(=O)n(-c2ccccc2)n1C (centres undefined),i,1,-8,128,108,-6,·
CO/N=C/NC(=O)C1=NOC(CNc2ncc(C(F)(F)F)cc2Cl)C1 (centres undefined),i,0.97,·,·,104,0,-1.4
COC(=O)c1ccc(CSc2ccccc2C)o1,i,0.87,·,·,100,4,-2.2
CNCC(O)COc1ccccc1 (centres undefined),i,0.93,28,123,104,3,-2.8
CC(C)(O)[C@@H]1Cc2c(ccc3ccc(=O)oc23)O1,i,1.1,0,103,103,-11,-2.2
COC(CC(=O)NNC(=S)Nc1ccccc1)OC,i,0.93,38,115,97,6,·
COc1ccc(N2CCN(C(=O)C3Cc4ccccc4CN3C(=O)c3ccccc3)CC2)cc1 (centres undefined),i,0.98,·,·,100,4,·
CN(C(=O)COC(=O)c1ccc2[nH]c3c(c2c1)CCCC3)C1CCS(=O)(=O)C1 (centres undefined),i,0.95,18,49,106,-3,·
Cc1ccc(NC(=O)CSc2ccccn2)cc1S(=O)(=O)N1CCOCC1,i,0.89,74*,71*,101,-7,·
CCOC(=O)C1=C(c2ccccc2)N2CCS(=O)(=O)N=C2S1,i,0.91,14,74,103,-9,0.5
N#CC(C(=O)NC1CCCCC1)c1nc2ccccc2nc1N1CCN(c2ccc(F)cc2)CC1 (centres undefined),i,1.1,·,·,99,1,-1.7
O=C(Cc1ccccc1)NN1C(=O)c2ccccc2C1=O,i,0.98,-20,56,52,1,·
Cc1nc2ccccn2c1C(=O)NC1CCCC1,i,0.73,·,·,102,-7,·
COc1ccc(C)cc1-n1nnnc1SCc1cn2ccsc2n1,i,0.94,-43,167,109,-11,-0.7
CC(C)CC(c1nnnn1Cc1ccccc1)N1CCC(C(N)=O)CC1 (centres undefined),i,0.95,-71,91,105,1,-1.1
COCCNC(=O)COc1ccccc1Cl,i,0.99,·,·,94,-7,-3.5
O=C(Nc1ccc(F)cc1)c1c(Cl)nc2ccccn12,i,1,·,·,100,-4,·
CC(C)c1ccccc1NS(C)(=O)=O,i,1,·,·,99,-5,·
O=C(Nc1ccccc1)N1CCCN(c2nccc(C(F)(F)F)n2)CC1,i,1.1,·,·,102,·,·
O=C(NCc1ccco1)c1cc(C(=O)C2CCCCC2)c[nH]1,i,0.77,-79,104,104,-1,-2.5
CCc1ccccc1NC(=O)COC(=O)C1CC(=O)N(c2ccc(F)cc2)C1 (centres undefined),i,0.72,-15,59,107,-17,-0.3
CC(C)(C)C(=O)CSc1nc2ncc(Br)cc2[nH]1,i,0.87,7,111,106,-10,-1.1
COc1ccccc1CNc1nc2nc(C)c(Cl)c(=O)n2[nH]1,i,0.72,·,·,96,-3,-3.2
Cc1nnc(SCC(=O)N2CCc3ccccc32)s1,i,1.2,68,82,103,-6,-0.7
Cc1ccc(NP(=O)(Nc2ccc(C)cc2)Nc2ccc(C)cc2)cc1,i,0.98,·,·,112,0,·
COc1ccc2cc(C(c3nnnn3C3CCCC3)N3CCCCCC3)c3nnnn3c2c1 (centres undefined),i,1,-54,116,109,-1,-2.2
CCCCCNc1nc(-c2ccccc2)nc(-n2ccnc2)n1,i,0.77,-27,113,117,1,·
Cc1nn(-c2ccc(C(=O)OC(C)C)cc2)c(C)c1[N+](=O)[O-],i,1,·,·,102,-6,·
Cc1n[nH]c(C)c1Cc1ccc(C(=O)O)cc1,i,1.1,29,171,102,-8,-2.8
Cn1cnnc1SCC(=O)OCN1C(=O)c2ccccc2C1=O,i,0.89,36,105,108,-8,-1.9
Cc1cc(/C=C2/NC(=O)NC2=O)c(C)n1-c1ccc(N2CCOCC2)cc1,i,0.96,·,·,99,-8,·
Cc1ccc(NC(=O)CSc2nc(O)cc(=O)n2C)cc1,i,1.1,-58,101,100,1,-3.4
O=C(CCC(=O)Nc1ccccc1)NNS(=O)(=O)c1ccccc1[N+](=O)[O-],i,1,·,·,108,0,·
Cc1ccc(-n2c(C)cc(C(=O)CN3CCOCC3)c2C)cc1,i,0.99,-47,102,90,-9,·
O=C(CSC1=NC(=O)C(Cc2ccccc2)C(=O)N1)Nc1ncccn1 (centres undefined),i,0.91,·,·,102,-12,-2.1
CCOc1ccc(OCc2ccc(C(=O)N3CCCC(C)C3)cc2)cc1 (centres undefined),i,0.94,-48,135,106,-3,·
CCC(CC)NC(=O)CO/N=C/c1ccc(Cl)cc1Cl,i,1.1,·,·,104,4,·
Cc1nc2ccc(NC(=O)c3ccccc3)cc2s1,i,0.97,-5,91,103,-5,·
COc1ccccc1N1CCN(S(=O)(=O)CC23CCC(CC2=O)C3(C)C)CC1 (centres undefined),i,0.76,0,173,14*,-5,-1.1

# Two compounds drawn at random from those above:
SMILES,HSV augment,HSV augment primary fold,Insulin prom inh,Insulin prom inh cell count,RGS16-Gao HTS,PKD1 kinase inh,GALR2 ag
Cc1nc2ccccn2c1C(=O)NC1CCCC1,i,0.73,·,·,102,-7,·
CCC(CC)NC(=O)CO/N=C/c1ccc(Cl)cc1Cl,i,1.1,·,·,104,4,·
